VCAM-1 up: boosters of cytokine-driven VCAM-1 levels – cell-based, plate reader, pooled HUVEC, TNFa stimulus (AID 455); HUVEC TNFa-induced VCAM-1 immunofluorescence, plate reader; numbers were filed only for top-ranked candidate wells; augmentation, % at 5 µM; hit rate 0.2% among 10,000;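 active = a compound raising TNF-alpha-driven VCAM-1 surface staining, with its hit status upheld on visual or statistical review; inactive = the rest, including hits rejected on review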;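 note: 0% = TNFa with vehicle and 100% = strongest image-checked hit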
26S disassembly: blocks ATP-dependent breakdown of the yeast 26S proteasome. anti-FLAG beads, GFP-proteasome disassembly, flow cytometry. inhibition of disassembly, % (test concentration not listed). hit rate 0.2% among 24,000;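 active = above 40%; inconclusive = likely self-fluorescent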;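 note: plate controls were ATP control with full disassembly for no effect and ATP-gamma-S intact proteasomes for full effect; higher percent means more bead fluorescence retained so stronger block of disassembly; stock transfer was 100 nL into about 10 µL; wells with too few beads may also be inconclusive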
Numbers without * were called inactive.

`COc1ccc(OC)c(S(=O)(=O)NCCO)c1` gave VCAM-1 up inactive and 26S disassembly -1.0.
Screening CCOC(=O)CN1CC23C=CC(O2)C(C(=O)Nc2cc(OC)ccc2OC)C3C1=O (configuration not stated) returned 26S disassembly -2.7.
For CCN1C(=O)C(C(=O)Nc2ccc(OC)cc2)C2CC1(C)Oc1ccccc12 (configuration not stated) the results were VCAM-1 up inactive and 26S disassembly -0.7.
For COc1cccc(OC)c1OCCCCCc1c(C)n[nH]c1C the results were 26S disassembly 0.1.
`COc1ccc(C2C(C(=O)N3CCCC3)CC(=O)N2c2ccc(OC)cc2)cc1` (configuration not stated) gave 26S disassembly -2.1.
`O=C(OCC(=O)c1c[nH]c2ccccc12)C1=COCCO1` gave VCAM-1 up inactive and 26S disassembly 0.5.
Screening CCC(=O)N1CCc2cc(Br)cc(S(=O)(=O)N3CCN(C(=O)c4ccco4)CC3)c21 returned 26S disassembly -0.5.
For COc1nc(/C(N)=N/O)nc(N2CCCCC2)n1 the results were 26S disassembly -0.8.
COc1ccc(S(=O)(=O)NCCCN2CCOCC2)c2ccccc12 was read as VCAM-1 up inactive and 26S disassembly -4.3.
`CCOC(=O)c1sc2nc(C)cc(C)c2c1N` gave VCAM-1 up inactive and 26S disassembly 0.1.
Screening CC(=O)NCc1nc2ccccc2n1Cc1ccccc1F returned 26S disassembly 0.3.
Screening O=C1c2oc3ccccc3c(=O)c2C(c2ccccn2)N1Cc1ccccc1 (configuration not stated) returned VCAM-1 up inactive and 26S disassembly -0.8.

Nothing new here: 6 of the compounds above.
`COc1ccc(OC)c(S(=O)(=O)NCCO)c1` gave VCAM-1 up inactive and 26S disassembly -1.0.
Screening CCOC(=O)CN1CC23C=CC(O2)C(C(=O)Nc2cc(OC)ccc2OC)C3C1=O (configuration not stated) returned 26S disassembly -2.7.
For CCN1C(=O)C(C(=O)Nc2ccc(OC)cc2)C2CC1(C)Oc1ccccc12 (configuration not stated) the results were VCAM-1 up inactive and 26S disassembly -0.7.
For COc1cccc(OC)c1OCCCCCc1c(C)n[nH]c1C the results were 26S disassembly 0.1.
`COc1ccc(C2C(C(=O)N3CCCC3)CC(=O)N2c2ccc(OC)cc2)cc1` (configuration not stated) gave 26S disassembly -2.1.
`O=C(OCC(=O)c1c[nH]c2ccccc12)C1=COCCO1` gave VCAM-1 up inactive and 26S disassembly 0.5.

The list continues:
Screening COc1cccc(-c2nc(CS(=O)(=O)CC(=O)NCc3ccccc3OC)c(C)o2)c1 returned 26S disassembly 2.7.
For Cc1ccc(Cn2nnc3c(=O)n(CC(=O)NCc4ccco4)cnc32)cc1 the results were 26S disassembly -0.6.
`CCCCCCc1ccc(-c2ncc(N)cn2)cc1` gave VCAM-1 up inactive and 26S disassembly 1.9.
`O=C(O)CNS(=O)(=O)c1ccc(Br)s1` gave 26S disassembly -2.4.
`CC1CCN(c2c(NCc3ccc(C(=O)N4c5ccccc5CC4C)cc3)c(=O)c2=O)CC1` (configuration not stated) gave VCAM-1 up inactive and 26S disassembly 0.3.
CN(C)CCC=C1c2ccccc2CCc2ccccc21 was read as VCAM-1 up inactive and 26S disassembly 0.1.
Screening Cc1ccc(C)c(-n2c(Cc3cc(=O)[nH]c(=O)[nH]3)nnc2SCC(=O)NCC2CCCO2)c1 (configuration not stated) returned 26S disassembly 2.2.
For Brc1c(NC2=NCCN2)ccc2nccnc12 the results were VCAM-1 up inactive and 26S disassembly -1.2.
CCCS(=O)(=O)NCCc1cc2ccc(C)cc2[nH]c1=O was read as 26S disassembly 0.4.
CCOC(=O)c1cnn(CCOC(=O)C(C)(C)C)c1NC(=O)C(C)(C)C was read as 26S disassembly -2.5.
For COc1ccc(Br)cc1CNC(=O)C1CCCN(S(C)(=O)=O)C1 (configuration not stated) the results were VCAM-1 up inactive and 26S disassembly -0.6.
Screening CCOC(=O)N1CCN(C(=O)c2cc(C)c3c(C)nn(-c4ccccc4)c3n2)CC1 returned 26S disassembly -1.8.
Cc1c(C(=O)N2CC(C)OC(C)C2)sc2nc(-c3ccc(F)cc3)cn12 (configuration not stated) was read as 26S disassembly -0.9.
COC(=O)c1cc(Br)c(=O)n(CCN2CCOCC2)c1 was read as VCAM-1 up inactive and 26S disassembly 1.1.
Screening O=C(CCS(=O)(=O)c1ccc(Br)s1)NCc1ccc2c(c1)OCO2 returned 26S disassembly 0.7.
`CCn1cc(C(=O)N2CCCc3ccccc32)c2cc(OC)c(OC)cc2c1=O` gave 26S disassembly -1.2.
O=C(Cn1ncc2c(=O)oc3ccccc3c21)NC1CC1 was read as 26S disassembly -1.8.
`CC1CCCC(C)N1C(=O)CSc1nnc(-c2cccs2)o1` (configuration not stated) gave VCAM-1 up inactive and 26S disassembly -5.3.
Cc1noc(/C=C/N(C)C)c1S(=O)(=O)N(C)CC(=O)NC1CCCCC1 was read as 26S disassembly 0.1.
Screening CCOC(=O)c1ccc(-c2nnc(-c3ccc(Cl)cc3Cl)o2)cc1 returned 26S disassembly -0.1.
COc1cccc(NC(=O)CNS(=O)(=O)c2ccc3nc(C)sc3c2)c1 was read as 26S disassembly 0.0.
Screening COc1ccc(C(=O)Nc2cc3c(cc2C#N)OCO3)cc1S(=O)(=O)NCc1ccco1 returned 26S disassembly -0.4.
Screening COC(=O)CSc1nnc(CNC(=O)c2cccs2)n1-c1cc(OC)ccc1OC returned 26S disassembly 0.7.
Screening O=C(CSc1nc2c(c(=O)[nH]1)CCCC2)Nc1ccc(Cl)cc1F returned 26S disassembly 2.1.
Screening COCCCNS(=O)(=O)c1ccc2c(c1)CCN2C(C)=O returned VCAM-1 up inactive and 26S disassembly 2.6.
Screening Cc1c(/C(O)=C2/C(=O)C(=O)N(CCN3CCOCC3)C2c2cccnc2)cnn1-c1ccccc1 (configuration not stated) returned VCAM-1 up inactive and 26S disassembly -0.1.
`O=C(c1cccc(F)c1)N1CCN(Cc2c[nH]c3ccccc23)CC1` gave 26S disassembly -1.1.
`Cc1ccc2c(c1C)NC(=O)C2(O)CC(=O)c1ccc2c(c1)OCO2` (configuration not stated) gave VCAM-1 up inactive and 26S disassembly 2.2.
`O=C(O)CCN=C1CCCc2ccccc2N1` gave 26S disassembly 0.8.
`COc1ccc(C(=O)COC(=O)c2ccc(OC)c(OC)c2)cc1OC` gave 26S disassembly -0.2.
O=C(C1CCN(S(=O)(=O)N2CCC3(CC2)OCCO3)CC1)N1CCN(Cc2ccccc2)CC1 was read as 26S disassembly -0.9.
Screening CC1=C(C(=O)N2CCCCC2)C(c2cccs2)C2=C(CCCC2=O)N1 (configuration not stated) returned VCAM-1 up inactive and 26S disassembly 3.3.
For CCOC(=O)c1ccc(NC(=O)C2=C(C)Nc3nc(CCCO)nn3C2c2cccc(C)c2)cc1 (configuration not stated) the results were 26S disassembly -1.7.
Screening COc1ccc(CNc2nc3nc(C)cc(C)n3n2)cc1OC returned VCAM-1 up inactive and 26S disassembly -1.8.
For CCOc1ccc(NC(=O)N(CCC(C)C)C(C)c2ccco2)cc1 (configuration not stated) the results were 26S disassembly 0.5.
CCn1nc(C(=O)OCC(=O)c2cc(C)n(Cc3cccs3)c2C)c2ccccc2c1=O was read as VCAM-1 up inactive and 26S disassembly -1.2.
CSc1nnc(-c2ccccc2)n1C was read as VCAM-1 up inactive and 26S disassembly -3.0.
`CCOc1ccc(C2Oc3nc(SC)nnc3-c3ccccc3N2C(C)=O)cc1OC` (configuration not stated) gave 26S disassembly -0.3.
Screening CC(=O)Nc1nc(-c2ccc(Cl)cc2)nc(C)c1C(C)=O returned VCAM-1 up inactive and 26S disassembly -1.0.
Screening O=S(=O)(c1cccc2nsnc12)N1CCCC1 returned 26S disassembly 0.7.
`C=CCN(CC=C)S(=O)(=O)c1ncn[nH]1` gave 26S disassembly -0.2.
C=CCNC(=O)C1CCN(S(=O)(=O)c2ccccc2)CC1 was read as 26S disassembly 1.8.
For CC1CCCCC1NC(=O)C1CCN(S(=O)(=O)N2CCOCC2)CC1 (configuration not stated) the results were 26S disassembly 3.9.
For CCCC(C)C1C(C#N)=C(N)Oc2cc(C)oc(=O)c21 (configuration not stated) the results were VCAM-1 up inactive and 26S disassembly -0.4.
`O=C(NCc1ccco1)c1cc(-c2cccs2)on1` gave 26S disassembly -0.3.
For Cc1ccc(N(CC(=O)N2CCn3c2nc2ccccc23)S(=O)(=O)c2c(C)n[nH]c2C)cc1 the results were 26S disassembly inconclusive.
For O=C(Cn1cnc2c(nnn2Cc2ccccc2F)c1=O)OCc1ccccc1 the results were 26S disassembly 0.0.
Screening CCOc1ccc(CCNC(=O)CCc2nc(-c3ccc(C)cc3)no2)cc1OCC returned 26S disassembly 0.7.
`COc1ccc(S(=O)(=O)CCC(=O)NC2CCCCC2)cc1` gave 26S disassembly 3.5.
For CC1CC(=O)N(CC(=O)Nc2ccc3c(c2)OCCO3)c2ccccc2S1 (configuration not stated) the results were 26S disassembly -0.4.
For CC(=O)C1C(c2ccc3ncccc3c2)NC(=O)NC1(O)C(F)(F)F (configuration not stated) the results were 26S disassembly -0.3.
O=C1C=C(c2ccccc2)OC2(CCCC2)O1 was read as 26S disassembly 0.8.
Screening CCCCCn1c(=O)[nH]c2cc(C(=O)NCCCN3CCC(C)CC3)ccc2c1=O returned 26S disassembly 1.6.
Screening CCC(=O)Nc1nonc1-c1nc2ccccc2n1Cc1ccc(Cl)c(Cl)c1 returned 26S disassembly 1.3.
CCOc1ccc(NS(=O)(=O)c2cc(Cl)ccc2OC)cc1 was read as VCAM-1 up inactive and 26S disassembly -1.4.
For CC(Sc1nc(-c2ccccc2)cc(C(F)(F)F)n1)C(=O)N1CCCC1 (configuration not stated) the results were VCAM-1 up inactive and 26S disassembly 0.4.
CCOC(=O)N1CCN(c2c(NCCCN(C)c3ccccc3)c(=O)c2=O)CC1 was read as 26S disassembly -1.8.
O=C(NCCCN1CCOCC1)C1CCC(=O)N1CCc1ccccc1 (configuration not stated) was read as 26S disassembly -1.1.
For COc1ccc(S(=O)(=O)N2CCN(C3CCCCCCC3)CC2)cc1 the results were VCAM-1 up inactive and 26S disassembly -1.8.
Screening O=c1cc(N2CCN(c3ccc(F)cc3)CC2)[nH]c(=O)n1C1CCCCC1 returned 26S disassembly 5.2.

Continued, overlapping the part above by 2 compounds.
For COc1ccc(S(=O)(=O)N2CCN(C3CCCCCCC3)CC2)cc1 the results were VCAM-1 up inactive and 26S disassembly -1.8.
Screening O=c1cc(N2CCN(c3ccc(F)cc3)CC2)[nH]c(=O)n1C1CCCCC1 returned 26S disassembly 5.2.
Cn1c(=O)c2nc(-c3ccccc3)oc2c2ccccc21 was read as 26S disassembly -1.5.
CCCCCCc1c(O)nc(SCC(=O)O)[nH]c1=O was read as 26S disassembly 0.2.
CC1CCCC(C)N1c1nnc(NC(=O)Cn2c(=O)oc3ccccc32)s1 (configuration not stated) was read as 26S disassembly 0.8.
O=C(CN1C(=O)CCS(=O)(=O)c2ccccc21)Nc1ccc2c(c1)OCCO2 was read as 26S disassembly -0.2.
Screening COc1ccc(C)cc1NC(=O)c1nnn(CCc2ccccc2)c1N returned 26S disassembly -1.6.
Screening O=C(CSc1nnc(C2COc3ccccc3O2)o1)NC1CCCCC1 (configuration not stated) returned 26S disassembly 0.3.
Cc1nn(-c2ccc(C(=O)O)cc2)c(=O)c2ccccc12 was read as 26S disassembly 1.2.
Screening CCN1CCN(c2nc3c(c(=O)[nH]c(=O)n3C)n2CCSc2nc3ccccc3s2)CC1 returned VCAM-1 up inactive and 26S disassembly -0.2.
`CCOc1cc(C#N)c(NC(=O)c2ccco2)cc1OCC` gave 26S disassembly -0.3.
Cc1ccc(S(=O)(=O)N(C)Cc2cc3ccccc3[nH]c2=O)cc1 was read as VCAM-1 up inactive and 26S disassembly 1.3.
For Oc1c(CN2CCOCC2)cc(-c2ccccc2)cc1CN1CCOCC1 the results were 26S disassembly -0.5.
CC(C)(C)n1ncc2c(=O)n(CC(=O)N3CCCCCC3)cnc21 was read as 26S disassembly 0.0.
`N#Cc1c(NC(=O)CSc2nc(N)cc(=O)[nH]2)sc2c1CCCCCC2` gave VCAM-1 up inactive and 26S disassembly -0.2.
Screening Cc1ccc(NC(=O)CN(C)S(=O)(=O)c2cccc3cccnc23)cc1 returned 26S disassembly 0.0.
COCCNC(=O)Cn1nc(C(F)(F)F)c(Br)c1C was read as VCAM-1 up inactive and 26S disassembly 0.9.
`CCOC(=O)CSc1cn2c(n1)CCC2` gave VCAM-1 up inactive and 26S disassembly -0.2.
For Nc1nnn(Cc2ccccc2)n1 the results were VCAM-1 up inactive and 26S disassembly 0.5.
Screening O=C(c1cc(-c2cccs2)on1)N1CCCCC1 returned 26S disassembly -0.2.
For O=S(=O)(Nc1ccc(O)cc1)c1cccc2cccnc12 the results were 26S disassembly 0.3.
`Cc1ccc(SC(C)c2nc(-c3ccccc3)no2)cc1` (configuration not stated) gave VCAM-1 up inactive and 26S disassembly 0.4.
CCOC(=O)c1[nH]cc(-c2ccccc2)c1N1CCOCC1 was read as VCAM-1 up inactive and 26S disassembly -1.4.
Screening COc1cccc(CNC(=O)C2CCN(S(=O)(=O)N3CCCC3)CC2)c1 returned 26S disassembly -0.5.
CCc1ccc(-c2nc(CN3CCC(C(=O)NCc4ccc(F)cc4)CC3)c(C)o2)cc1 was read as 26S disassembly 0.1.
`CCOc1cc(C(=O)N(C)c2ccccc2)cc(OCC)c1OCC` gave VCAM-1 up inactive and 26S disassembly 1.1.

Compound activity from PubChem.

Not all compounds are listed; the hit share may differ from the screen's.
